UCH37 inh: blocks the human deubiquitinase UCH37; Q9Y5K5; purified proteasome/UCH37, Ub-AMC cleavage fluorescence; inhibition, % (test concentration not listed); 330,000 compounds, 0.33% hits; AID 588478;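 active = mean of two replicates above 20%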;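 also: 0% = compound-free wells with enzyme and 100% = wells lacking proteasome; stock transfer was 100 nL into about 20 µL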
Target sequence (Q9Y5K5 whole entry, looked up): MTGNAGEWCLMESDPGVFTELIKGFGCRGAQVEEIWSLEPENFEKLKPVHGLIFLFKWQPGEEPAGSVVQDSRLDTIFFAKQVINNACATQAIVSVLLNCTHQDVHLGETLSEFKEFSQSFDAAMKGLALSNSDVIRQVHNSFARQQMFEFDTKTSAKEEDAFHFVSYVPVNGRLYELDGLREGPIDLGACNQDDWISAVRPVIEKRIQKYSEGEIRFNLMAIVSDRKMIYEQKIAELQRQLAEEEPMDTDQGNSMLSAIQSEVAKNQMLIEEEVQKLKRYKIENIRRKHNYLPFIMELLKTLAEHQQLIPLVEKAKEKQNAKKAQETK
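Assay system: Proteasome-bound UCH37. Buffer or medium: pH 7.4 Tris-HCl (50 mM) with ovalbumin, ATP-MgCl2, DTT. Incubation: 30 min preincubation with enzyme, 25 min cleavage at room temperature. Measured by: fluorescence, ex 355 nm, em 460 nm. Read-out basis: percent inhibition. Control set: wells without proteasome as full block, compound-free enzyme plus substrate as uninhibited.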
Active calls of the source: *; i = inactive.

SMILES | UCH37 inh
CCc1ccc(C(C)=NNC(=O)CNC(=O)/C=C/c2ccccc2OC)cc1 | -4.7
CCCCNC(=O)N(O)C1N(N=Cc2ccccc2OC)C(=S)SC1(C)C (stereo not given) | 11
Cc1onc(-c2c(Cl)cccc2Cl)c1C(=O)ON=C(C#N)c1c(Cl)cccc1Cl | 5.6
O=C(ON=C1CCCc2ccccc21)c1cccs1 | 0.2
CC(=NNC(=O)c1cccc(Br)c1)c1cccc(NC(=O)c2ccc(C)o2)c1 | 2.2
Cc1cccc(C=NNC(=O)C(C)Nc2cccc3ccccc23)n1 (stereo not given) | 0.1
COc1ccc(C(C)=NNC(=O)c2ccc(NS(=O)(=O)c3cccs3)cc2)cc1 | 3.7
O=C(CNc1ccccc1)NN=Cc1ccc2c(c1)OCCO2 | 4.3
O=C(NN=Cc1cnc(N2CCCCC2)s1)c1ccc(C(F)(F)F)cc1 | -6.3
CCOC(=O)NN=Cc1ccccc1OC/C=C/c1ccccc1 | 3.2
Clc1ccc(CN2CCN(N=Cc3cccnc3)CC2)cc1 | 4.3
COc1cc(C=NNC(=S)NCCN2CCOCC2)ccc1O | -31
CC(=NNC(=O)c1nn(C)c(C)c1Br)c1cccc(NC(=O)c2ccoc2C)c1 | -5.4
O=C1NCCCC1C(=O)NN=Cc1ccccc1O (stereo not given) | -10
CC(=NNC(=O)CNC(=O)c1cccc(F)c1)c1ccc2ccccc2c1 | 1.7
Cc1ccc(NC(=O)C(CN(C)C)=NO)cc1 | 1.9
O=C(Cc1cccs1)NN=Cc1ccc([N+](=O)[O-])s1 | 3.8
CC(=O)n1cc(C=NNC(=O)c2ccc(Cl)cc2)c2ccccc21 | 2.2
CC(=O)C(=NNc1ccc(C)cc1)Sc1nncn1C | 7.8
O=C(Cn1cncn1)NN=Cc1cc([N+](=O)[O-])ccc1O | 13

Given tab-delimited: entries from further up
structure	UCH37 inh
O=C(CNc1ccccc1)NN=Cc1ccc2c(c1)OCCO2	4.3
O=C(NN=Cc1cnc(N2CCCCC2)s1)c1ccc(C(F)(F)F)cc1	-6.3
CCOC(=O)NN=Cc1ccccc1OC/C=C/c1ccccc1	3.2

Additional entries follow:
SMILES | UCH37 inh
CC(=NNC(=S)NC1CCCCC1)c1ccc(O)cc1 | 2.0
O=C(CN1c2ccccc2Sc2ccccc21)NN=Cc1ccccc1 | 5.1
O=C(NN=Cc1ccc(OC(F)F)cc1)c1ccc(CSc2nc3ccccc3[nH]2)cc1 | 2.2
COc1ccc(C=NNC(=O)c2cc3cc(OC)c(OC)cc3[nH]2)cc1 | -16
CCOc1ccc(CON=Cc2c(C)[nH]c(=O)[nH]c2=O)cc1 | -1.2
O=c1[nH]c(-[n+]2ccccc2)c(C=N/N=C(\[O-])c2ccccc2)s1 | 17
COc1ccc(C(C)=NOC/C(O)=C(\C#N)c2nc3ccccc3[nH]2)cc1OC | -3.8
CC(=NNC(=O)c1ccncc1)c1ccccc1 | 3.4
O=C(NN=Cc1ccc(F)cc1)c1sccc1OCc1ccc(F)cc1 | 0.8
CC(C)c1ccc(/C=C2\CC/C(=C\C=NN(C)C)C2=O)cc1 | 4.4
CC(=NOCC(=O)OC(C)C(=O)Nc1ccc(C)c(S(=O)(=O)N2CCOCC2)c1)c1ccc2c(c1)OCO2 (stereo not given) | 2.2
CCCC1SC(=NN=Cc2ccc(OC)cc2)N(Cc2ccc(OC)cc2)C1=O (stereo not given) | 0.2
CC(=NNc1ccccc1)c1cc2ccccc2oc1=O | 3.3
CCNc1nc(NCC)nc(NN=Cc2ccc(O)c(O)c2)n1 | -4.1
O=C(CNc1ccc2ccccc2c1)NN=Cc1ccc(C(=O)O)cc1 | 0.9
COc1cccc(C=NNC(=O)C(C)n2nc(C)c([N+](=O)[O-])c2C)c1O (stereo not given) | 1.5
CC(C)NC(=O)CC(=O)NN=Cc1ccc(Br)cc1 | 1.1
CC(=NNc1nnc2c3ccccc3n(C)c2n1)c1ccc(C)o1 | 9.8
O=c1c2ccccc2nc(COc2ccccc2)n1N=Cc1ccco1 | 7.5
COc1cc(C=N/N=C2/NC(=O)C(c3ccccc3)S2)ccc1O (stereo not given) | 7.5

Structures shown so far that have a Cl atom (three):
SMILES | UCH37 inh
Cc1onc(-c2c(Cl)cccc2Cl)c1C(=O)ON=C(C#N)c1c(Cl)cccc1Cl | 5.6
Clc1ccc(CN2CCN(N=Cc3cccnc3)CC2)cc1 | 4.3
CC(=O)n1cc(C=NNC(=O)c2ccc(Cl)cc2)c2ccccc21 | 2.2

(more compounds)
SMILES | UCH37 inh
CC(C)Cn1c(=O)c(C(=O)NN=Cc2cccc(F)c2)c(O)c2ccccc21 | 4.2
CCN(CC)c1ccc(C=NNC(=O)c2cc(C)nc3ccccc23)cc1 | 9.8
O=C(ON=C(c1ccccc1)c1ccncc1)c1ccccc1F | 0.2
CCc1nc2ccccc2c(=O)n1N=Cc1ccc(OC)cc1 | 6.3
COc1ccc(OC)c(C=NNC(=O)CN2CCSCC2)c1 | i
CC[C@]12C(=O)N(C)C[C@H]([C@@H]3C(=O)N(Cc4ccccc4)C(=O)[C@@H]31)N2C(=O)c1ccc(C(F)(F)F)cc1 | 1.9
CCOc1cc(C=NNC(=O)c2ccncc2)cc(Cl)c1OS(C)(=O)=O | 6.7
C=CCn1c(COc2ccccc2)nnc1SCC(=O)NN=Cc1cc(Cl)ccc1O | 0.8
Cc1ccc(NC(=O)CCC(=O)NN=Cc2ccccc2O)cc1 | -9.0
CN(CCCCCC(=O)C=NO)Cc1ccccc1 | 1.1
CC(C)c1ccc(C=NNc2ccc(C(=O)O)cc2)cc1 | 6.6
COc1ccc(C=NNC(=O)c2cccc(C(=O)NN=Cc3ccc(OC)c(OC)c3)n2)cc1OC | -262
CC(=NOC(=O)c1c(-c2c(F)cccc2Cl)noc1C)c1cnccn1 | 5.2
O=C(COc1ccccc1)NCC(=O)NN=Cc1ccco1 | 5.1
CCN(CC)c1ccc(C=NNc2nc(C)cc(=O)[nH]2)c(O)c1 | -30
O=C(CSc1nnc(SCc2ccc(Cl)cc2)s1)NN=Cc1ccc(C(=O)O)cc1 | 2.9
COCc1cc(=O)[nH]c(N=C(N)Nc2cccc(C)c2)n1 | 4.3
COc1cc(C=NN2C(=O)c3ccccc3NC2(C)c2cccc([N+](=O)[O-])c2)cc(Br)c1O (stereo not given) | 0.0
COc1ccccc1C(=O)ON=C(c1ccccc1)c1ccncc1 | 5.4
O=C(NN=Cc1cccc(OC(=O)N2CCOCC2)c1)c1cccs1 | 4.7
NN=C(c1ccccc1)c1cc(Cl)ccc1N | 2.6
COc1cc(C=NNC(=O)Nc2ccccc2)ccc1OCCOc1ccccc1C | 1.0
N#Cc1c(N=Cc2cc3ccccc3s2)sc2c1CCC2 | 7.5
Cc1ccc(C=NNC(=O)C(C)Oc2cccc3ccccc23)o1 (stereo not given) | 3.0
Cc1c(C=NNC(=O)c2cc3ccccc3o2)c2ccccc2n1C | -30
COc1ccc(C(C)=NNC(=O)c2nnn(-c3nonc3N)c2CN(C)c2ccccc2)cc1 | 3.7
O=C(NN=Cc1ccc(OC(=O)c2cccc(Br)c2)cc1)c1cccnc1 | 2.6
Cc1cc(C)n2nc(C(=O)NN=Cc3ccc(O)cc3)nc2n1 | 3.1
COc1cc(C=NN2CCOCC2)ccc1OCc1ccccc1 | 3.0
COc1ccc(C(C)=NNc2nc(C)c(C(C)=O)s2)cc1 | -9.9
COC(=O)c1ccccc1-c1ccc(C=NNC(=O)c2cc3ccccc3o2)o1 | -83
O=[N+]([O-])c1ccc2c(c1)C(=NO)c1ccccc1-2 | 6.7
CC(=NNc1cccc(C(=O)O)c1)c1cc2ccccc2o1 | 18
COc1cccc(OCCOc2cccc(C=Nn3cnnc3)c2)c1 | 5.0
C/C(C=NNC(=O)CN1CCN(Cc2ccccc2)CC1)=C\c1ccco1 | 8.0
O=C(Cc1cccs1)NN=C/C=C/c1ccccc1 | 7.6
Cc1cccc(S(=O)(=O)c2c(N)n(N=Cc3ccco3)c3nc4ccccc4nc23)c1 | -144
Cc1cccc(-n2c(C)cc(C=Nn3cnnc3)c2C)c1 | 2.4
CC(CC(=O)Nc1ccc2c(c1)OCCO2)=NNC(=O)c1ccc([N+](=O)[O-])cc1Cl | 4.3
CC(C)(C)CC(C)(C)c1ccc(OCC(=O)NN=Cc2ccc(S(=O)(=O)O)o2)cc1 | 1.1
Cc1c(C(=O)NN=Cc2ccc(-c3ccccc3[N+](=O)[O-])o2)sc(N)c1C#N | 4.0
O=C(NN=Cc1ccc(N2CCOCC2)o1)c1cccc(F)c1 | 7.9
CC(=NNC(=O)CNC(=O)C(c1ccccc1)c1ccccc1)c1ccc(C(C)(C)C)cc1 | -0.3
Clc1ccc(C=NN2CCCCC2)cc1 | 4.8
COc1ccc(C(=O)NN=Cc2ccc(N(C)c3ccccc3)cc2)cc1 | -275
CCOC(=O)C(=O)NN=Cc1ccco1 | 7.6
CC(=N/N=C1\NC(=O)C(C)S1)c1ccco1 (stereo not given) | 7.6
CCC(C)=NN1C(=O)c2ccccc2NC1(C)CC (stereo not given) | -103
O=C(CNc1ccc(F)cc1)NN=C1CCc2ccccc21 | 3.6
CC(=NNS(=O)(=O)c1ccc(C)cc1C)c1c[nH]c2ccccc12 | 2.9
Next section.
SMILES | UCH37 inh
CCCC(=NNC(=O)c1ccccc1C)c1ccccc1 | 4.8
Cc1ccc(NC(=S)NN=Cc2ccc([N+](=O)[O-])s2)cc1 | 7.8
O=C(NN=Cc1cc(Br)cc(Cl)c1O)c1ccc2c(c1)OCO2 | -0.3
C/C(C=NNC(=O)c1ccccc1F)=C\c1ccccc1 | 6.9
COc1cc(C=NNc2ccc(Cl)c(C(=O)O)c2)ccc1OC(=O)c1cccs1 | 8.6
CCN(CC)S(=O)(=O)c1ccc(NN=Cc2ccc(O)cc2)nc1 | -12
NC(=O)C(=NO)c1ccccc1 | 5.4
Cc1ccc(-c2cc(C(=O)NN=Cc3ccc(Cl)cc3)n[nH]2)o1 | 6.1
COc1ccc2c(c1)CCCC2=NOC(=O)c1ccccc1OC | 0.6
Cc1ccc(C=NNc2nnc(Cl)c3ccccc23)cc1 | 5.7
COc1ccc(C=NNc2nc(C(=O)O)cs2)cc1 | 7.4
C/C(C=NNC(=O)c1ccc(Cn2cc([N+](=O)[O-])cn2)o1)=C\c1ccccc1 | 1.8
C=CCn1c(=C(C#N)C(=O)NCC2CCCO2)sc(=Cc2ccccn2)c1=O (stereo not given) | -4.3
O=C(COc1ccccc1F)NN=C1CCCc2ccccc21 | 2.7
CC(=NS(=O)(=O)c1ccc(C)cc1)N(C)C | 1.1
O=C(O)c1ccc(C=NNc2nc3ccccc3[nH]2)cc1 | 7.1
Cc1ccc(NS(=O)(=O)c2ccc(NN=Cc3ccncc3)c([N+](=O)[O-])c2)c(C)c1 | 7.4
O=C(COC(=O)C1CC(O)CN1S(=O)(=O)c1ccccc1[N+](=O)[O-])Nc1ccc2ccccc2c1 (stereo not given) | 1.4
CC(=NNC(=O)c1nnn(-c2nonc2N)c1-c1ccc2c(c1)OCO2)c1cccs1 | -4.8
CCc1n[nH]c(=S)n1N=Cc1cc(Br)c(O)c(OC)c1 | 9.6
CCOc1ccc(NC(=O)C(=O)NN=Cc2ccc(CNS(=O)(=O)c3ccccc3)o2)cc1 | 3.7
Cc1ccc(NC(=O)COc2ccc(C=NNC(=O)c3cccnc3)cc2)cc1C | -58
O=C(CON=Cc1ccc2c(c1)OCO2)Nc1cccc(Br)c1 | 3.1
COC(=O)c1ccc(CON=C2CCCc3nonc32)cc1 | 0.3
NC(=S)NN=C1CCOc2ccc(F)cc21 | 8.2
Cn1cccc1C=NNC(=O)Cc1cccs1 | 3.6
O=C(Cn1cc(C=NNC(=O)c2ccccc2Br)c2ccccc21)Nc1ccc(F)cc1 | 0.3
COc1cc(C=NNC(=O)COc2ccc(Cl)cc2)ccc1OS(=O)(=O)c1ccc(C)cc1 | 1.9
O=C(NN=Cc1cc(Cl)ccc1O)c1ccc(S(=O)(=O)N2CCCCC2)cc1 | 2.4
COc1cccc(C(C)=NNc2ccc(S(=O)(=O)N3CCCCC3)cn2)c1 | 1.4
Cc1cc(NN=Cc2cccc(Cl)c2)nc(-n2nc(C)cc2C)n1 | -63
CC(C)(C)S(=O)(=O)C(C#N)=NNc1ccc(S(C)(=O)=O)cc1 | 20
COc1cccc(C(=O)ON=C(C)c2cnccn2)c1 | -1.5
Cc1ccc(C(=NO)c2oc3c(C)c4oc(=O)cc(C)c4cc3c2C)cc1 | -62
NC(=NOC(=O)c1cccs1)c1cccc([N+](=O)[O-])c1 | -1.1
COC(=O)c1ccc(C=NOCC(=O)NCc2ccc(F)cc2)cc1 | 1.3
CC(=NNC(=O)c1ccc(O)cc1)c1cccc([N+](=O)[O-])c1 | 2.3
CCOC(=O)c1c(NC(=O)C(=O)NN=Cc2ccc(OCC)cc2)sc2c1CCCCC2 | -161
CCOC(=O)C1=C(C)N=c2sc(=Cc3ccc(OCC(=O)O)cc3)c(=O)n2C1c1ccc(OC(C)C)cc1 (stereo not given) | 9.5

Seven records drawn at random from the list so far:
SMILES | UCH37 inh
Cc1cc(NN=Cc2cccc(Cl)c2)nc(-n2nc(C)cc2C)n1 | -63
COc1cccc(C(=O)ON=C(C)c2cnccn2)c1 | -1.5
CC(=NNC(=O)c1ccc(O)cc1)c1cccc([N+](=O)[O-])c1 | 2.3
COC(=O)c1ccc(C=NOCC(=O)NCc2ccc(F)cc2)cc1 | 1.3
CC(C)(C)S(=O)(=O)C(C#N)=NNc1ccc(S(C)(=O)=O)cc1 | 20
CCOC(=O)c1c(NC(=O)C(=O)NN=Cc2ccc(OCC)cc2)sc2c1CCCCC2 | -161
CCOC(=O)C1=C(C)N=c2sc(=Cc3ccc(OCC(=O)O)cc3)c(=O)n2C1c1ccc(OC(C)C)cc1 (stereo not given) | 9.5

Compound activity deposited in PubChem BioAssay by ICCB-Longwood Screening Facility, Harvard Medical School.

Not all compounds are listed (hit frequency here may not be typical).
